# Ecoli rRNA inh = reduced GFP signal of wild-type E. coli, primary screen, bacterial rRNA inhibitor project, GFP/RFP fluorescence, OD600, single point. E. coli WT GFP vs humanized-ribosome RFP mutants, 24 h; stronger effect = lower value; DMSO median 0, no signal -100. GFP signal change (wild-type ribosome), % (no concentration beside the values). hit rate 1.6% among 350,000. AID 720706, 2013;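 active = significant combined selectivity score with lowered wild-type GFP, culture density cut under 30%, mutant RFP and density less affected; inactive = any of these conditions unmet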; also: one replicate is shown; some compounds called inactive have numbers as strong as hits
# MLL AF4-AF9 inh = inhibitors of AF4 peptide binding to AF9, primary screen, biochemical, AlphaScreen, biotin-AF4 peptide, FLAG-AF9, single point. AID 651704, 2012. inhibition, % at 10 µM. Protein AF-9 (Homo sapiens), P42568. hit rate 0.47% among 350,000;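 active = every replicate reaching a set inhibition limit, whatever the replicate mean, cut at about 25% in these data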;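 also: 0% = plate neutral control median and 100% = total signal loss; the record names both 10 and 1 µM as test concentration; the first replicate is given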
# Target sequence (P42568 whole entry, looked up): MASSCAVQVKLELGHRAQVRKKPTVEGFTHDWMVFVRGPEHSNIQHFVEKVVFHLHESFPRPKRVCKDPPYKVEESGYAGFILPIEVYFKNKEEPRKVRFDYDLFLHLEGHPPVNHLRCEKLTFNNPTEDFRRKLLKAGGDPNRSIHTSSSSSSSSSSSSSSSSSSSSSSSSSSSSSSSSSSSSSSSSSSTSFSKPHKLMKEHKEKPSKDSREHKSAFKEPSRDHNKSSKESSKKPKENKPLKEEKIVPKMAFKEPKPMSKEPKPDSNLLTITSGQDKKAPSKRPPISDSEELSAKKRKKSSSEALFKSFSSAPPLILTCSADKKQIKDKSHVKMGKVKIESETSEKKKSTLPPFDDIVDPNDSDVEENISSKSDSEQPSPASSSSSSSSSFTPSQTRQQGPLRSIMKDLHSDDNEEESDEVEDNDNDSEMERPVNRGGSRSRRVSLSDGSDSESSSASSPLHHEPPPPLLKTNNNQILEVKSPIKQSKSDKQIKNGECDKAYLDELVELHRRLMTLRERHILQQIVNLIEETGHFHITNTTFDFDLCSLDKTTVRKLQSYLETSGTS
# Ecoli rRNA inh OD600 = further read-out of Ecoli rRNA inh, marked with its call; OD600 change, %; measured here: OD600 growth;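 optical density of the mix in the first replicate; 0 = DMSO median and -100 = no signal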
# Ecoli rRNA inh RFP = recorded beside Ecoli rRNA inh, whose call it bears; RFP signal change, %; measured here: RFP humanized mutant strains;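 first replicate; 0 = DMSO median and -100 = no signal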
# Starred values were filed as active, the others as inactive. Not all compounds are listed (hit frequency here may not be typical).
# Each structure is followed by: Ecoli rRNA inh	Ecoli rRNA inh OD600	Ecoli rRNA inh RFP	MLL AF4-AF9 inh
CCC(=O)N1CC(=O)N2[C@H](CO)[C@@H](c3ccc(C#Cc4cccc(OC)c4)cc3)[C@@H]2C1
→ 10	-29	14	-1.5
CC(C)NC(=O)Nc1ccc2c(c1)CC(=O)N([C@H](C)CO)C[C@@H](C)[C@@H](CN(C)Cc1ccc(C(F)(F)F)cc1)O2
→ -2	5	-2.1	-1.5
C[C@H](O)C#Cc1ccc2c(c1)O[C@H](CN(C)Cc1cccnc1)[C@H](C)CN([C@H](C)CO)S2(=O)=O
→ -6	-5	-1.9	8.7
CCCNC(=O)C1(C)CCN1C(=O)c1ccc(C(C)(C)C)cc1 (configuration not stated)
→ -1	10	0.0	-5.0
C[C@H](CO)N1C[C@H](C)[C@H](CN(C)Cc2ccc(F)cc2)Oc2ncc(-c3ccccc3)cc2C1=O
→ -1	2	0.1	2.0
N#C[C@@H]1[C@H](c2ccccc2C2=CCCC2)[C@H](CO)N1C(=O)C1CCCC1
→ 0	-21	-5.5	0.4
O=C(C[C@@H]1CC[C@@H](NC(=O)CC2CC2)[C@@H](CO)O1)NCc1ccccc1
→ 1	-5	6.8	-4.9
COc1ccc(CN(C)C[C@H]2Oc3ccc(NC(=O)c4ccncc4)cc3CC(=O)N([C@H](C)CO)C[C@H]2C)cc1
→ 0	0	-1.3	-1.5
CCCNC(=O)C[C@@H]1CC[C@@H]2[C@H](COC[C@H](O)CN2C(=O)Nc2ccc3c(c2)OCO3)O1
→ 1	12	-0.2	-0.6
COc1ccc2c3c([nH]c2c1)[C@@H](CO)N(S(C)(=O)=O)CC31CCN(C(=O)CN(C)C)CC1
→ 3	-2	2.2	0.2
CCC(=O)N[C@H]1CC[C@H](CC(=O)NCc2ccc(OC)cc2)O[C@@H]1CO
→ 0	4	-1.2	-2.4
C[C@H](CO)N1C[C@H](C)[C@H](CN(C)Cc2ccc(C(F)(F)F)cc2)OCCCC[C@H](C)Oc2ccc(NC(=O)CCC(F)(F)F)cc2C1=O
→ 1	6	1.8	4.5
O=C(C[C@@H]1CC[C@H](NC(=O)c2ccccc2)[C@H](CO)O1)Nc1ccc(-c2ccccc2)cc1
→ -20	-41	1.5	3.1
C[C@H]1CN([C@@H](C)CO)S(=O)(=O)c2ccc(-c3ccc(C(=O)N(C)C)cc3)cc2O[C@H]1CN(C)Cc1ccccc1C(=O)O
→ 5	7	-2.9	2.4
OCC(CCc1c[nH]c2ccccc12)c1c[nH]c2ccccc12 (configuration not stated)
→ -23	-53	-17	41*
CC(C)NC(=O)N(C)C[C@@H]1Oc2ccc(NS(=O)(=O)c3cn(C)cn3)cc2CC(=O)N([C@@H](C)CO)C[C@@H]1C
→ 0	1	-0.4	-3.0
COc1ccccc1C(O)c1ncc(-c2cccc3ccccc23)[nH]1 (configuration not stated)
→ -8	-50	17	12
O=C(NCC(F)(F)F)[C@@H]1[C@@H](CO)[C@@H]2Cn3c(cccc3=O)[C@H]1N2CC1CCOCC1
→ 4	10	-1.9	-2.8
NC(c1csc(Nc2cnccn2)n1)C1CCCCC1 (configuration not stated)
→ 6	18	1.3	1.3
CCC(=O)N1C[C@@H](O)COC[C@H]2O[C@H](CC(=O)N3CCCCC3)CC[C@@H]21
→ 5	12	-1.7	-2.6
O=C(NCc1ccc(C(F)(F)F)cc1)c1cccc2c(-c3ccc(F)c(F)c3)coc12
→ 10	19	-2.2	-3.5
COc1ccc(S(=O)(=O)N(C)C[C@H]2OCCCC[C@@H](C)Oc3ccc(NS(=O)(=O)c4c(C)noc4C)cc3C(=O)N([C@@H](C)CO)C[C@H]2C)cc1
→ 0	3	1.1	1.0
COc1ccc(Cl)cc1-c1cc(C(=O)Nc2cc(OC)c(OC)c(OC)c2)[nH]n1
→ -24	-53	5.3	-0.2
CO[C@H]1CN(C)C(=O)c2ccc(NC(C)=O)cc2OC[C@H](C)N(C(=O)C2CCC2)C[C@@H]1C
→ 1	4	0.5	-3.7
CCCNC(=O)C[C@@H]1C[C@H]2c3cc(NC(=O)Nc4ccc(F)cc4)ccc3O[C@H]2[C@@H](CO)O1
→ 3	3	-1.2	-0.1
CCCN1[C@H](C(=O)N2CCCCC2)[C@@H](CO)[C@@H]2Cn3c(ccc(-c4ccccc4)c3=O)[C@@H]21
→ -5	-8	1.4	-1.9
CCCNC(=O)N1CCC2(CC1)CN(C(=O)CC)[C@H](CO)c1[nH]c3cc(OC)ccc3c12
→ 0	6	-4.4	0.2
COc1ccc(S(=O)(=O)Nc2ccc3c(c2)CC(=O)N([C@@H](C)CO)C[C@@H](C)[C@H](CN(C)S(C)(=O)=O)O3)cc1
→ 4	4	-1.9	0.2
C[C@@H]1CN([C@H](C)CO)C(=O)c2cc(-c3ccccc3)cnc2O[C@@H]1CN(C)C(=O)Cc1ccccc1
→ 2	-4	-0.8	0.5
CC(C)(C)[S@](=O)N1Cc2cc(C(=O)NCCN3CCCCC3)nc(-c3cccc(-c4ccc(C#N)cc4)c3)c2[C@@H]1CCO
→ -1	7	-0.1	3.9

# 4 compounds from above, showing only MLL AF4-AF9 inh:
Compound,MLL AF4-AF9 inh
COc1ccc(CN(C)C[C@H]2Oc3ccc(NC(=O)c4ccncc4)cc3CC(=O)N([C@H](C)CO)C[C@H]2C)cc1,-1.5
CCCNC(=O)C[C@@H]1CC[C@@H]2[C@H](COC[C@H](O)CN2C(=O)Nc2ccc3c(c2)OCO3)O1,-0.6
COc1ccc2c3c([nH]c2c1)[C@@H](CO)N(S(C)(=O)=O)CC31CCN(C(=O)CN(C)C)CC1,0.2
CCC(=O)N[C@H]1CC[C@H](CC(=O)NCc2ccc(OC)cc2)O[C@@H]1CO,-2.4

# Single values from the list:
# Ecoli rRNA inh with O=C(NCC(F)(F)F)[C@@H]1[C@@H](CO)[C@@H]2Cn3c(cccc3=O)[C@H]1N2CC1CCOCC1 is entered as 4
# Ecoli rRNA inh OD600 with CCC(=O)N1C[C@@H](O)COC[C@H]2O[C@H](CC(=O)N3CCCCC3)CC[C@@H]21 is entered as 12

# Additional structures:
# Each structure is followed by: Ecoli rRNA inh	Ecoli rRNA inh OD600	Ecoli rRNA inh RFP	MLL AF4-AF9 inh
O=C(CSc1nnc(C2CC2)n1C1CC1)N1CCN(c2ccc(O)cc2)CC1
→ 5	-1	-0.2	-4.2
CC1(C(=O)O)CCN1C(=O)COc1ccc(Cl)cc1 (configuration not stated)
→ 15	10	-1.3	-2.8
CN(C)C(=O)C[C@H]1C[C@@H]2c3cc(N(C)C)ccc3O[C@@H]2[C@@H](CO)O1
→ 0	8	4.3	-2.0
CC(C)NC(=O)N(C)C[C@@H]1Oc2ccc(NC(=O)CCC(F)(F)F)cc2CC(=O)N([C@@H](C)CO)C[C@@H]1C
→ -3	-2	-0.1	-2.5
CCCCn1nnnc1C(c1cc2ccccc2o1)N1CCOCC1 (configuration not stated)
→ -2	-7	3.8	-2.7
C[C@@H]1CN([C@H](C)CO)C(=O)c2cc(Br)cnc2O[C@H]1CN(C)Cc1ccncc1
→ 2	6	-4.2	-5.5
COc1ccccc1-c1ccc2n(c1=O)C[C@@H]1[C@@H](CO)[C@H](C(=O)N3CCN(C)CC3)[C@H]2N1CC1CC1
→ 6	8	0.5	-1.0
C[C@H](CO)N1C[C@H](C)[C@H](CN(C)C(=O)Cc2cccnc2)Oc2ncc(C#CCN(C)C)cc2C1=O
→ 2	-6	0.3	-1.8
CC(C)Oc1ccc(CN2CCC2(C)C(=O)NCc2cccc3ccccc23)cc1 (configuration not stated)
→ -7	-48	9.7	-2.1
O=C(Cc1ccccn1)NCC[C@@H]1CC[C@H](NC(=O)Nc2ccc(F)cc2)[C@H](CO)O1
→ 3	4	-0.1	-0.5
COCCNC(=O)C[C@@H]1C=C[C@H](NC(=O)NC2CCCCC2)[C@@H](CO)O1
→ -1	5	-0.6	0.6
C[C@@H]1CN([C@H](C)CO)C(=O)c2cc(C#C[C@@H](C)O)cnc2O[C@H]1CN(C)C(=O)Cc1ccccn1
→ -1	2	0.0	-3.6
O=c1[nH]c(=S)[nH]c2c1C(c1ccccc1)OC(C1CCCCC1)C2 (configuration not stated)
→ 10	5	0.4	0.8
O=C(C[C@H]1CC[C@@H]2NC[C@H](O)COC[C@H]2O1)NCCc1ccncc1
→ 5	11	1.3	-2.4
CCNC(=O)C[C@H]1CC[C@@H]2[C@@H](COc3ccc(NC(=O)c4ccccc4)cc3C(=O)N2C)O1
→ -1	0	-1.0	-2.0
COCC#Cc1ccc2c(c1)O[C@@H](CN(C)C(=O)Nc1ccc(OC)cc1)[C@@H](C)CN([C@H](C)CO)S2(=O)=O
→ -5	0	-0.7	3.6
Cc1ccc2ccc(C(Nc3ccccc3)c3ccccc3)c(O)c2n1 (configuration not stated)
→ -49	-72	-19	6.1
N#Cc1cccc(-c2ccc([C@H]3[C@H]4CN(Cc5ccccc5F)CCCCN4[C@H]3CO)cc2)c1
→ -17	-40	15	-1.9
COc1ccc(S(=O)(=O)N(C)C[C@@H]2Oc3ccc(NC(=O)Nc4ccc5c(c4)OCO5)cc3C(=O)N([C@H](C)CO)C[C@H]2C)cc1
→ -5	-6	-0.6	1.6
C[C@H](O)C#Cc1cnc2c(c1)C(=O)N([C@@H](C)CO)C[C@@H](C)[C@@H](CN(C)C(=O)Nc1ccc(F)cc1)O2
→ 5	12	-2.1	-2.8
COC(=O)c1cc2c(c3c4cc(OC)ccc4n(S(=O)(=O)c4ccc(OC)cc4)c13)C(=O)N(Cc1ccc(C(F)(F)F)cc1)C2
→ 3	-2	7.5	-0.5
Cc1ccc(S(=O)(=O)Nc2ccc3c(c2)C(=O)N([C@H](C)CO)C[C@@H](C)[C@H](CN(C)S(=O)(=O)c2cn(C)cn2)OCCCC[C@@H](C)O3)cc1
→ 0	0	3.2	1.3
O=C(C[C@H]1CC[C@@H]2NC[C@H](O)COC[C@H]2O1)NCCN1CCCC1
→ 2	12	0.0	0.5
CN(C)C(=O)[C@@H]1[C@@H](CO)[C@@H]2Cn3c(ccc(C4=CCCC4)c3=O)[C@H]1N2Cc1cccnc1
→ 0	-1	-1.0	2.3
CN(C)C(=O)C[C@H]1CC[C@H](NS(=O)(=O)c2ccccc2)[C@@H](CO)O1
→ -1	5	-1.5	15
COc1ccc(NC(=O)N2CC(=O)N3[C@H](CO)[C@@H](c4ccc(-c5ccc(C)cc5)cc4)[C@H]3C2)cc1
→ -5	-36	25	3.3
CN(C)C(=O)C[C@@H]1CC[C@H](NC(=O)C2CCOCC2)[C@@H](CO)O1
→ 2	8	-2.5	-3.3
COc1ccc(CN(C)C[C@@H]2Oc3c(NC(=O)c4ccc(-c5nccs5)cc4)cccc3C(=O)N([C@H](C)CO)C[C@H]2C)cc1
→ -9	-7	3.7	9.1
C[C@@H]1CN([C@H](C)CO)C(=O)Cc2cc(NC(=O)Nc3cccc4ccccc34)ccc2O[C@H]1CN(C)S(=O)(=O)c1ccc(F)cc1
→ 1	8	0.3	-0.9
C#CCOCC1CN(C)C(=O)O1 (configuration not stated)
→ 10	18	2.1	-0.4

# Later entries.
SMILES	Ecoli rRNA inh	Ecoli rRNA inh OD600	Ecoli rRNA inh RFP	MLL AF4-AF9 inh
O=S(=O)(N[C@@H]1CC[C@H](CCn2cc(-c3cccc(F)c3)nn2)O[C@@H]1CO)c1ccc(Cl)cc1	-13	-52	35	-0.5
C[C@@H]1CN([C@@H](C)CO)C(=O)Cc2cc(NC(=O)Nc3ccc(C(F)(F)F)cc3)ccc2O[C@H]1CN(C)CC1CCCCC1	-9	-21	0.7	6.2
Cc1ccc(-c2cnc3c(c2)C(=O)N([C@@H](C)CO)C[C@@H](C)[C@H](CN(C)S(C)(=O)=O)O3)cc1	-3	-3	-1.3	-0.8
Cc1c(NC(=O)c2ccc(NS(=O)(=O)c3cccc([N+](=O)[O-])c3)cc2)c(=O)n(-c2ccccc2)n1C	16	6	0.2	-3.5
O=C(C1=NOC2(C1)C(=O)Nc1ccccc12)N1CCCC1 (configuration not stated)	24	8	3.5	-3.5
CO[C@H]1CN(C)C(=O)c2ccc(NC(=O)c3ccc(F)cc3)cc2OC[C@@H](C)N(C(=O)CC2CC2)C[C@H]1C	-4	3	0.5	-0.3
CN(C)C(=O)[C@H]1[C@H](CO)[C@H]2Cn3c(ccc(-c4cccc(F)c4)c3=O)[C@H]2N1C(=O)c1cnccn1	0	3	0.9	-7.9
O=C(C[C@@H]1CC[C@@H]2[C@H](COC[C@@H](O)CN2Cc2cccc(C(F)(F)F)c2)O1)NCc1ccc(Cl)cc1	-54	-75	-15	2.9
CO[C@@H]1CN(C)C(=O)c2cc(NC(=O)c3ccc(Oc4ccccc4)cc3)ccc2OC[C@H](C)NC[C@H]1C	-4	-6	13	9.7
C[C@@H]1CN([C@@H](C)CO)C(=O)c2cc(NC(=O)Nc3ccc4c(c3)OCO4)ccc2O[C@H]1CN(C)Cc1ccc(C(=O)Nc2ccccc2N)cc1	-9	2	-0.8	-1.2
COc1ccc(C(=O)Nc2cccc(C(=O)Nc3cc(C)ccn3)c2)cc1	3	8	0.3	3.4
COc1cccc(/C=C/C(=O)OCC(=O)c2c[nH]c3ccccc23)c1	-27	-33	20	1.1

# Bioassay records: PubChem, Broad Institute
